Sa RN4220 lethal: growth inhibition of S. aureus RN4220, primary screen, OD600. 16 h. actives 0.33% (n = 330,000). inhibition, % (no concentration beside the values). AID 1259311, 2017;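 active = z-score of -3 or lower and OD600 up to 0.18 on both plates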;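 also: plate controls were untreated cells for no effect and reference antibiotic for full effect; stock transfer was 100 nL into about 80 µL; one replicate is shown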
Sa ugtP lethal: growth inhibition of ugtP-null S. aureus, primary screen, RN4220 ugtP deletion, OD600; growth inhibition, % (no concentration beside the values); actives 0.54% (n = 330,000); 16 h; some inactives read as strong as hits;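 active = z-score under -3 and OD600 up to 0.15 on both plates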;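 also: plate controls were untreated wells for no effect and antibiotic for full effect; wells of about 80 µL received 100 nL stock; the first replicate is given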
Bead autofluor: compound fluorescence in toxin protease inhibitor counterscreen; compound autofluorescence counterscreen, microsphere flow cytometry; hits give high values; fluorescence intensity (test concentration not listed); actives 3.1% (n = 360,000); AID 624483;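 active = at least 3 SD above the mean of all compounds, about 16000 in these data; inconclusive = too few beads counted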;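 also: 100 nL of 1 mM stock went into each well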
PrP 5UTR inh: inhibition of PrP 5' UTR reporter expression. AID 488862, 2010. cell-based PrP 5' UTR mRNA reporter, plate reader. actives 0.35% (n = 340,000). inhibition, % (test concentration not listed);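 active = every replicate at 50% or more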;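 also: 0 = median of the neutral control wells; tested in H4 reporter cells; numbers are from one replicate; inactives centre near -14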
BJeLR lethal: MLPCN primary cell-based screen for lethality selective to Ras in HRASV12 cells | BJeLR (HRASV12) viability, CellTiter-Glo ATP luminescence, 48 h; reference of the scale not given here | inhibition, % (test concentration not listed) | actives 0.17% (n = 300,000) | AID 1554, 2009;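 active = replicate mean above 50%; inconclusive = above 50% but judged a plate artefact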;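 also: 50 nL library stock added to about 25 µL; numbers are from one replicate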
Mtb hypoxia rep: PubChem AID 1159583; actives 0.1% (n = 300,000); M. tuberculosis hypoxia-regulated fluorescent reporter, fluorescence; fluorescence inhibition, % (concentration not given with the values);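 active = 35 to 45% if threefold the growth effect, above 45% if 1.5-fold the growth effect; inactive = the rest, general growth blockers included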;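 also: wells of about 50 µL received 100 nL stock; 0% = vehicle wells and 100% = reference inhibitor wells; whole bacteria with a GFP reporter of the hypoxia response; strong numbers were not always called active; many hits fall short of the cut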
Mtb hypoxia rep growth: further read-out of Mtb hypoxia rep, marked with its call; growth inhibition, %; measured here: M. tuberculosis growth (absorbance);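 0% = vehicle and 100% = reference antibiotic; read after six days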
An asterisk follows results filed as active; ? = inconclusive; . = no result given; & = joins results of further samples. Compounds were not picked by outcome; overall some 4% were active at least once.

Results follow in this order: Sa ugtP lethal | Sa RN4220 lethal | Mtb hypoxia rep | BJeLR lethal | Bead autofluor | Mtb hypoxia rep growth | PrP 5UTR inh
> CCOC(=O)N1CCN(CC(=O)c2c(C)[nH]c3ccccc23)CC1
  1 | -0.1 | . | 2 | 2975 | . | -11
> CN(C(=O)c1ccccc1C(=O)OCC(=O)Nc1ccccc1)c1ccccc1
  10 | 8.0 | -3 | . | . | -5 | -26
> Cc1cn(C2OC(CC(=O)Oc3ccccc3)C(O)C2O)c(=O)[nH]c1=O (configuration not stated)
  -1 | 1.8 | -2 | -4 | 5254 | 11 | -16
> COc1ccc(C(=O)N2N=C(c3ccc(NS(C)(=O)=O)cc3)CC2c2cccs2)cc1 (configuration not stated)
  18 | -3.7 | 10 | 2 | 3383 | -3 | -15
> c1ccc(Oc2cccc3cccnc23)nc1
  7 | 4.5 | -2 | -2 | 4189 | 9 | -29
> COc1ccc(CNC(=O)C(=O)NCC2CCCO2)cc1 (configuration not stated)
  9 | 6.3 | 12 | 0 | 4642 | 4 | -22
> Nc1c(NCc2ccccc2)c(=O)[nH]c(=O)n1Cc1ccccc1
  2 | -1.3 | . | 2 | 2706 | . | -6
> O=c1cc(COn2nnc3ccc(C(F)(F)F)cc32)nc2sccn12
  -9 | 7.8 | 10 | -15 | 4330 | 8 | -19
> COc1ccc(CNC(=O)CN2CCN(S(=O)(=O)c3cccs3)CC2)cc1OC
  3 | 0.2 | 3 | -8 | 4330 | -3 | -1
> CCN1CCN(C2=C(Cl)C(=O)N(Cc3ccccc3)C2=O)CC1
  9 | 2.3 | 7 | . | 3289 | 4 | -4
> Cc1ccc(S(=O)(=O)N2CCOCC2)cc1NC(=O)COc1cccc(Oc2ccccc2)c1
  -5 | -4.4 | 4 | 8 | 6367 | -2 | -2
> Cc1ccccc1C(=O)NC(=S)Nc1ncccn1
  9 | 4.0 | -2 | -7 | 3604 | 4 | -7
> O=C1C2CCCN2C(c2ccc(F)cc2)N1c1cccc(Cl)c1 (configuration not stated)
  9 | 3.5 | . | -3 | 4514 | . | 4
> COc1ccc(C(=O)N2CCN(C3CCC(c4ccccc4)CC3)CC2)cc1OC (configuration not stated)
  3 | 1.1 | 4 | -8 | 8428 | 7 | -5
> Cc1ccc(SCc2c(C(=O)N/N=C/c3ccoc3)nnn2-c2nonc2N)cc1
  . | . | . | 3 | 4233 | . | -10

2 of the compounds above, field by field.
> Cc1cn(C2OC(CC(=O)Oc3ccccc3)C(O)C2O)c(=O)[nH]c1=O (configuration not stated)
  Sa ugtP lethal: -1	Sa RN4220 lethal: 1.8	Mtb hypoxia rep: -2	BJeLR lethal: -4	Bead autofluor: 5254	Mtb hypoxia rep growth: 11	PrP 5UTR inh: -16
> COc1ccc(C(=O)N2N=C(c3ccc(NS(C)(=O)=O)cc3)CC2c2cccs2)cc1 (configuration not stated)
  Sa ugtP lethal: 18	Sa RN4220 lethal: -3.7	Mtb hypoxia rep: 10	BJeLR lethal: 2	Bead autofluor: 3383	Mtb hypoxia rep growth: -3	PrP 5UTR inh: -15

(list continues)
Results follow in this order: Sa ugtP lethal | Sa RN4220 lethal | Mtb hypoxia rep | BJeLR lethal | Bead autofluor | Mtb hypoxia rep growth | PrP 5UTR inh
> Cc1ccc(C(N)=S)c(C)c1
  3 | 4.5 | 3 | -8 | 3203 | 9 | -13
> CN1CCC(NC(=O)Cc2c(F)cccc2Cl)CC1
  2 | 1.7 | 4 | 2 | 1995 | 4 | -1
> O=C(CCCN1C(=O)/C(=C/c2cccc(Br)c2)SC1=S)Nc1cccnc1
  -13 | -6.0 | 13 | 8 | 4219 | 18 | 4
> c1cncc(CSc2ccc(-c3cccs3)nn2)c1
  6 | 8.8 | 1 | -11 | 4441 | -4 | -37
> O=C(c1ccccc1F)N1CCOCC1
  1 | 0.1 | 8 | 0 | 4248 | -3 | -28
> O=c1[nH]c(=S)[nH]c(O)c1N=Nc1ccc(OC(F)F)cc1
  23 | 7.7 | . | -4 | 3362 | . | 5
> O=c1c2ccccc2nnn1CSc1nnc(-c2cccnc2)n1-c1ccccc1F
  9 | 7.4 | 7 | -14 | 3630 | 0 | -79
> Cc1ccc(S(=O)(=O)N2CCCCC2)cc1NC(=O)c1ccc2ccccc2n1
  -21 | 5.1 | 0 | -5 | 2479 | -6 | -10
> CC(C)(C)c1ccc(C2/C(=C(\O)c3ccc4c(c3)OCCO4)C(=O)C(=O)N2CCCN2CCOCC2)cc1 (configuration not stated)
  10 | 5.9 | 4 | 17 | 5142 | 0 | -22
> O=C(NCCC(=O)N1CCN(c2ccccc2O)CC1)c1ccc(Br)cc1
  7 | 5.1 | 6 | 2 | 4592 | -3 | 6
> COc1ccc(NC(=S)N(Cc2cccnc2)Cc2ccco2)cc1
  7 | 1.2 | -1 | 10 | 3708 | 16 | -31
> CCN1CCN(C(=O)c2cc3nc(-c4ccccc4)cc(C(F)(F)F)n3n2)CC1
  28 | 5.8 | 21 | 4 | 8015 | 9 | -11
> CN(CC(=O)Nc1ccc(Cl)cc1)C(=O)CCc1c[nH]c2ccccc12
  2 | -1.4 | 12 | -11 | 5868 | 5 | -19
> O=C(N/N=C/c1ccc2c(c1)OCO2)c1cc(-c2ccccc2)nc2ccccc12
  . | . | . | -9 | 2056 | . | 2
> Clc1ccc(-c2csc3ncnc(N4CCc5ccccc5C4)c23)cc1
  -8 | 5.3 | 9 | 5 | 2404 | -1 | -75
> Cc1cccc(N2CCN(C(=O)Cc3c(C(=O)O)[nH]c4ccc(Cl)cc34)CC2)c1C
  29 | -0.3 | . | 7 | 5763 | . | -7
> S=C(NC1CCCCC1)N1CCC(c2cnc[nH]2)CC1
  5 | 4.8 | 7 | 6 | 5454 | 5 | -21
> COc1cc(N=c2ssnc2Cl)c(OC)cc1Cl
  0&3 | 8.5&2.5 | 6&5 | -3 | 3952&3555 | 6&3 | -7&-10
> CC(C)n1nccc1N(Cc1ccc(Br)cc1)S(=O)(=O)c1ccccc1
  6 | -1.7 | -9 | 2 | 5805 | 9 | 0
> C=CCCC(Cc1ccc(F)cc1)C(=O)OCC(C)NC(=O)C(CC=C)CC(=O)NCCO (configuration not stated)
  -2&12 | 9.0&7.4 | 19&1 | . | . | 10&2 | .
> C[C@H]1C=C(C(=O)NCc2nc3ccccc3[nH]2)O[C@@H](OCCCCO)C1
  . | . | . | 0 | 4067 | . | -8
> Cc1nc(CCNC(=O)COc2ccccc2)cs1
  -3 | -11 | 4 | -7 | 5995 | 10 | -42
> O=C(NCCO)c1ccc2nc(Cc3cccc(Cl)c3)oc2c1
  7 | 4.2 | 15 | 0 | 3266 | 8 | -26
> COc1ccc(S(=O)(=O)N2CCC(C(=O)N[C@H](C(=O)N3CCCC3)C(C)C)CC2)cc1
  6 | 4.6 | -2 | -3 | 5359 | 6 | -18
> O=C(Cn1cc(C(F)(F)F)ccc1=O)N1CCc2ccccc2C1
  4 | 0.9 | 7 | . | 3954 | 4 | -9
> CCCCNc1nc(CC(C)=O)ns1
  -2 | 0.2 | 10 | 10 | 3963 | 13 | -18
> CCOc1cc(/C=N/NC(=O)c2ccncc2)cc(Cl)c1OS(C)(=O)=O
  . | . | . | 7 | 2269 | . | 0
> Cc1[nH]n(C(N)=S)c(=O)c1N=Nc1ccc(Br)cc1
  13 | 6.3 | 13 | -11 | 4058 | 10 | -67
> Cc1ccc(NC(=O)c2ccoc2C)cc1C
  0 | 2.7 | 1 | 2 | 2565 | 2 | -115
> O=C(CCC(=O)c1cccs1)NCc1ccncc1
  -1 | -2.2 | -18 | 8 | 5178 | 2 | -17
> O=C(COC(=O)/C=C/c1cc(Br)ccc1F)Nc1ccc2[nH]c(=O)[nH]c2c1
  2 | 5.7 | 0 | 14 | 7613 | 7 | -28
> CCOC(=O)c1cn(Cc2c(C)c(C)c(C)c(C)c2C)nn1
  0 | 0.7 | 1 | 2 | 7644 | 2 | -17
> CSCc1nc2scc(-c3ccccc3)c2c(=O)[nH]1
  13 | 3.5 | 4 | 7 | 3277 | -5 | -3
> NCCNC(=O)c1c(O)c2cccc3c2n(c1=O)CCC3
  -3 | 0.1 | 13 | -5 | 3914 | 9 | -14
> CCOc1ccc(-n2c(COc3ccc(C)cc3)nnc2SCC(N)=O)cc1
  -7 | 4.6 | 6 | 6 | 6698 | 5 | -16
> Cc1nccn1CC1CCc2c(c3ccccc3n2C)C1=O (configuration not stated)
  4&-1&-1 | 6.5&4.6&4.9 | 8&3&-8 | 4&8 | 5928&5435 | -2&14&-5 | -50&-13
> CC(C)(C)NC(=O)Nc1ccccc1C(N)=O
  6 | 2.4 | -3 | -14 | 7265 | -4 | -19
> COc1cccc(NC(=O)Cn2c3ccc(OC)cc3c3nc4n(c(=O)c32)CCS4)c1
  5 | 3.9 | 5 | -2 | ? | -3 | 6
> Cc1cc(C)c[n+](CC(=O)c2ccccc2)c1
  7 | 2.2 | -1 | 5 | 3217 | -2 | -8
> COc1ccc(-n2c(NNC(C)=O)nc3sc4c(c3c2=O)CCCC4)cc1
  11 | 4.2 | 4 | -13 | 3358 | -2 | -16
> N#Cc1cc(Sc2ccccn2)c([N+](=O)[O-])cc1C#N
  . | . | . | -10 | 4352 | . | -9
> CC(C)N=c1cc2n(-c3ccc(Cl)cc3)c3ccccc3nc-2cc1Nc1ccc(Cl)cc1
  66 | 58 | . | 13 | 3933 | . | -13
> COc1ccc(CC(=O)OCC(=O)N2N=C(c3ccccc3)CC2c2ccc(OC)cc2)cc1 (configuration not stated)
  -2 | 0.6 | 12 | -19 | 2207 | 6 | 3
> Cc1ccc(C)c(NC(=O)c2sc(Cl)nc2-c2ccccc2)c1
  5 | 10 | 14 | -6 | 3267 | -1 | -12
> CCN(CC)S(=O)(=O)c1ccc(C(=O)NC(C)(C)C)cc1
  -8 | -1.2 | -5 | -2 | 4258 | 0 | -1
> CC(C)(C)OC(=O)NCc1ccc(NC(=O)c2nc[nH]c2C(=O)NCCN(CCNC(=O)c2[nH]cnc2C(=O)Nc2ccc(CNC(=O)OC(C)(C)C)cc2)CCNC(=O)c2[nH]cnc2C(=O)Nc2ccc(CNC(=O)OC(C)(C)C)cc2)cc1
  3 | 4.3 | 7 | . | 3893 | 9 | 20
> Cc1cc(C=C2C(=O)c3ccccc3C2=O)c(C)n1-c1cccc(C(=O)O)c1
  -18 | 8.3 | 2 | -2 | 2621 | 0 | -10
> CC(C)OC(=NS(=O)(=O)c1ccc(Cl)cc1)c1ccccc1
  5 | 7.2 | 8 | . | . | 7 | .
> O=S(=O)(Cc1cc(-c2ccc(Cl)cc2)no1)c1ccccc1
  8 | 3.7 | . | 4 | 2760 | . | -61
> CN1/C(=C/C=C(C#N)C#N)C(C)(C)c2ccccc21
  0 | 0.0 | 2 | 4 | 3257 | 0 | -4
> CCOC(=O)c1c(-c2ccc(C)s2)csc1NC(=O)c1cccs1
  3 | 3.7 | 9 | 3 | 5180 | 9 | -25
> CCOC(=O)Cn1c(=O)n(Cc2ccc(OC)cc2)c(=O)c2cccnc21
  4 | 1.4 | -4 | -12 | 3585 | -5 | -30
> CC1(C)NC(=O)N(CCCOc2ccccc2Br)C1=O
  . | . | . | -1 | 16174* | . | -8
> CC1=C[C@@H](C)[C@@H](c2ccc(C(F)(F)F)cc2)OC1=O
  . | . | . | 1 | 4272 | . | -31
> CC(=O)Nc1ccc(N2C(C(C)=O)=NN(c3ccccc3)C2c2cccs2)cc1 (configuration not stated)
  -5 | 4.2 | -2 | 18 | 19872* | 0 | -13
> O=c1c2c(nc3c(-c4cccc5ccccc45)c[nH]n13)CCC2
  1 | -2.3 | -3 | 4 | 2821 | -3 | -13
> Cc1ccc(N(CC(=O)NCc2ccco2)C(=O)CNS(=O)(=O)c2ccc(F)cc2)c(C)c1
  1 | -3.4 | -1 | -5 | 4254 | -2 | -7
> O=C(Nc1nnc(-c2ccccc2)s1)c1ccccc1O
  94* | 91* | 7 | 11 | 4089 | 7 | -40
> CC(=O)Nc1ccc(NC(=O)c2ccc(COc3ccccc3Br)o2)cc1
  0 | 3.6 | -1 | 16 | 3974 | 0 | -25
> Cc1cc(C)n(CC(=O)N/N=C/c2ccc([N+](=O)[O-])s2)n1
  . | . | . | 5 | 4465 | . | -11
> CCCCOc1ccccc1C1NC(=O)CCC1[N+](=O)[O-] (configuration not stated)
  -2 | 2.5 | 15 | 2 | 2956 | 8 | -17
